# Sfp inh: qHTS Assay for Inhibitors of Bacillus subtilis Sfp phosphopantetheinyl transferase (PPTase) | Biochemical Sfp PPTase activity, qHTS | Potency, µM, for the others: max response, negative = inhibition, actives largely listed as inhibitors | actives 3.5% (n = 310,000); active = well fitted inhibition curve with a large enough effect; inconclusive = small, poorly fitted or top-dose-only effect, or another doubt; inactive = no such curve, though single readings can be large or run the other way;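 also: the enzyme is Sfp with the accession as filed and its product quenches rhodamine fluorescence; potency is read from the fitted curve at half-maximal effect; 0% = enzyme reaction without inhibitor and -100% = no enzyme wells; top concentration of the series not given in the record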
#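 Sfp 15 nM + cpd, 15 min RT; start w/ rhodamine-CoA 5 uM, BHQ-2-YbbR 12.5 uM (final); 50 mM Hepes pH 7.6, 10 mM MgCl2, 0.01% NP-40, 0.01% BSA; read 525/598 nm at 0 and 30 min.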
# ClpP mod: qHTS Assay for Activators of ClpP; ATP-dependent Clp protease proteolytic subunit (Bacillus subtilis (strain 168)), P80244; purified B. subtilis ClpP, FRET peptide cleavage, 20 min; Potency, µM (series often up to 57.5 µM), inactives show top-dose activity change, negative = active; actives 1.9% (n = 340,000); active = well fitted falling curve with a large enough effect; inconclusive = small, poorly fitted or top-dose-only effect; inactive = no such curve, though single readings can be large or run the other way; also: potency is read from the fitted curve at half-maximal effect; the source files actives as falling curves though it sought activators and does not explain the sign; nearly all actives have a fitted effect of over 65% in size; many hits overshoot -100%
# Target sequence (P80244 whole entry, looked up): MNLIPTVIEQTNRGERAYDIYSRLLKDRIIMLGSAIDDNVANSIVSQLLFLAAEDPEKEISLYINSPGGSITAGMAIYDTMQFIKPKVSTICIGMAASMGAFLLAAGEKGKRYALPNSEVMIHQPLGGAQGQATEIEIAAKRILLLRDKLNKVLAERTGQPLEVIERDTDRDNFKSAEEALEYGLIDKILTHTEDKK
#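 ClpP 10 microg/mL final, pH 8 Tris/KCl buffer with BSA, glycerol, Tween-20; compound pinned in; FRET-FV substrate; RT 20 min; Ex320/Em430; ΔFRET vs ADEP 5.8 microM, DMSO, no enzyme.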
# Menin-MLL FL inh: qHTS Assay for Inhibitors Targeting the Menin-MLL Interaction in MLL Related Leukemias: Competition With Fluorescein Labeled MLL-derived Peptide | Fluorescence polarization, fluorescein-MLL peptide displacement from menin | FP activity change, % at 61.4 µM | 290,000 tested, under 10 active; inconclusive = falling polarisation curve, or a change in total fluorescence; inactive = total fluorescence flat and polarisation flat or rising; no compound was filed as active; the % refers to the polarisation; negative = inhibition;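 also: % of control where 0% means no effect; inhibitors lower the polarisation; unlabelled MLL peptide was the positive control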
# TRPML1 inh: qHTS for Inhibitors of the Human Mucolipin Transient Receptor Potential 1 (TRPML1); Mucolipin-1 (Homo sapiens), Q9GZU1; TRPML1-inducible cells, Ca2+ dye fluorescence, FDSS; stronger effect = lower value; inhibition of EC80 agonist-evoked calcium signal; activity change, negative = inhibition, % (concentration not given with the values); actives 0.02% (n = 390,000); AID 624415, 2012; in the data active means activity change below about -50%; inconclusive means about -30% to -50%; inactive means above about -30%;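 also: stimulus is agonist 54-4 at its EC80 concentration; % is scaled to controls: 0 for no effect and ±100 for the full control effect; compound concentration not given in the record; the text of the record puts the active cut at -80%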
#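 Calcium fluorescence in TRPML1-DL cells induced overnight with Tet: a 110 s read after compound pin addition, then a 110 s antagonist read after challenge with 54-4 at 4 uM final (EC80).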
# TRPV1 potentiator: HTS Assay for Compounds that Act as Potentiators of the Vanilloid Receptor 1 | TRPV1-expressing cells, Fluo-8 calcium influx, capsaicin EC20 potentiation; host cell line not named in the record; control for the full effect not named in the record | potentiation, % at 8.33 µM | actives 0.02% (n = 320,000) | AID 540277, 2011; active means potentiation above 80%; inconclusive means 30% to 80%; inactive means below 30%; also: 0% is about no effect
# Target sequence (Q8NER1 whole entry, looked up): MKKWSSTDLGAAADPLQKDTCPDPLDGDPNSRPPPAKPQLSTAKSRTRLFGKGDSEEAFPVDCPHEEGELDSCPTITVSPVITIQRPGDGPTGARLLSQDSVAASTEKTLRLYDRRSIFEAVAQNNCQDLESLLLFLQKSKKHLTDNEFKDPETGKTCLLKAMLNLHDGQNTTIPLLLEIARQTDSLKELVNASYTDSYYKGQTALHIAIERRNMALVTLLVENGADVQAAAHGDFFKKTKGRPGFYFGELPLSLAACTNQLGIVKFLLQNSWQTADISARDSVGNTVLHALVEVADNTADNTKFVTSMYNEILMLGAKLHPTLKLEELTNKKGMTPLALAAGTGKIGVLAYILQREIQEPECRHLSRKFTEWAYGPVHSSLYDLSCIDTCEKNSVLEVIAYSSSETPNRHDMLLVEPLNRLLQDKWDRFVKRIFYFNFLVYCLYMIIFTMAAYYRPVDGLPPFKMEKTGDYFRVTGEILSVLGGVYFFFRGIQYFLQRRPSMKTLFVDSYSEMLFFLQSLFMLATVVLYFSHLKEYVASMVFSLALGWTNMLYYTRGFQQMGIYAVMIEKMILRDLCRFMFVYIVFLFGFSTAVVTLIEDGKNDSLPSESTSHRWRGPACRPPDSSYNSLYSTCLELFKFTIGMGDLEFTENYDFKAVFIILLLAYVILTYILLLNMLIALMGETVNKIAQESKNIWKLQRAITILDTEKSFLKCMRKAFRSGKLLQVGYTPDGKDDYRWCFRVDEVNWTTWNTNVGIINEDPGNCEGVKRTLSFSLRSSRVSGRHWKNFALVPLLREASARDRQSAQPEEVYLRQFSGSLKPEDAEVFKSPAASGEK
#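 TRPV1-expressing cells were cultured overnight at 35.5C and loaded with Fluo-8 calcium dye for 40 to 90 min at room temperature. After a 10 s baseline, compound was added and calcium influx was read kinetically for 3 min (ex 480/em 520 nm).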
# PINK1 modulator: A Quantitative High throughput Screen to Identify Chemical Modulators of PINK1 Expression. PINK1 immunofluorescence, high-content cytometry, 24 h. Potency, µM (highest dose often 76.6 µM), without a hit: top-dose activation (PINK1 increase), most hits filed as activators. actives 0.2% (n = 410,000); active = well fitted activation curve with a large enough effect; inconclusive = small, poorly fitted or top-dose-only effect; inactive = flat fitted curve, though single readings scatter; cell line not stated here;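 also: potency is read from the fitted curve at half-maximal effect; % of control where 0% means no effect; nearly all actives have a fitted effect of over 65% in size; a mitochondrial uncoupler was the plate control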
#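 PINK1 protein level read as immunofluorescence by microplate cytometer in a fixed, stained stable cell line after 24 h exposure to five compound concentrations, with CCCP as control.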
# TRPML1 agonist: qHTS for Agonists of the Human Mucolipin Transient Receptor Potential 1 (TRPML1). Mucolipin-1 (Homo sapiens), Q9GZU1. activation, % (no concentration beside the values). AID 624414, 2012. actives 0.12% (n = 410,000). TRPML1-expressing cells, Ca2+ dye fluorescence, FDSS; host cell line not named in the record; reference of the full effect not given here; in the data active = activation above about 50%; inconclusive = about 30% to 50%; inactive = below about 30%; also: 0% is about no effect; the text of the record puts the active cut at 80%
#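 Kinetic FDSS Ca2+ read in Tet-induced TRPML1-DL cells (ABD Ca8 dye plus quencher, 45-90 min RT loading): baseline, then compound, then 110 s agonist window; EC80 agonist 54-4 at 4uM final added afterwards for a 110 s antagonist window.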
# Active calls of the source: *; ? = inconclusive; . = no result given; & = joins results of further samples; [ ] = dose if it differs, or a comment. The order is random; about 4.4% have a hit in one of these screens.
smiles	Sfp inh	ClpP mod	Menin-MLL FL inh	TRPML1 inh	TRPV1 potentiator	PINK1 modulator	TRPML1 agonist
Clc1cccc(CN2CCC(Cc3ccccc3)CC2)c1	?	1.4%	2.7	10.5	29.5	?	0.9
O=C(COC(=O)Cc1ccccc1F)Nc1ccc(SC(F)F)cc1	19.2%	-0.6%	0.6	-0.5	-9.9	-1.9%	0.8
Cc1noc(C)c1CSCC(=O)N(C)CC(=O)Nc1ccc(Cl)c(Cl)c1	.	-0.4%	.	25.1	10.2	0.4%	0.0
CCN(CC)C(=O)CSc1ncnc2c1cnn2Cc1ccccc1	6.6%	1.7%	-1.9	8.7	4.1	-1.8%	1.5
CCc1cccc(NC(=O)Cn2nc(-c3cc(C)ccc3C)ccc2=O)c1	.	-1.1%	.	11.9	.	-0.4%	1.8
CCc1ccc(/C([O-])=C(/C(=S)NCCN2CCOCC2)[n+]2ccccc2)cc1	44.7µM*	-4.3%	-10.7	-2.9	9.5	-0.6%	0.5
CCC(C)c1ccc(NC(=O)C2CCN(c3ccc(C(F)(F)F)cn3)CC2)cc1 (configuration not stated)	8.6%	-4.8%	1.1	-2.2	17.2	5.2%	0.6
CC(C)(C)OC(=O)C[C@@H]1C/C=C\C[C@H](CC(=O)N[C@H](CO)Cc2ccccc2)C(=O)N[C@H](Cc2ccccc2)COC1=O	.	0.0%	.	6.1	.	-0.1%	-0.2
Cn1c(COc2ccc(F)cc2)nnc1SCC(=O)NC1CC1	3.0%	-24.3%	.	10.1	1.5	2.2%	-0.3
O=C(Nc1cccc(OC(F)(F)F)c1)c1cccc2c(-c3cccnc3)coc12	.	-10.3%	.	.	.	0.8%	0.2
COc1ccc(C(=O)NCCNC(=O)c2cnccn2)cc1OC	16.0%	.	.	-21.8	0.8	-2.1%	0.3
Cc1cccc(CCNC(=O)c2ccc3c(c2)nc2n3CCOC2)c1	.	0.8%	.	-5.8	.	1.3%	-0.9
COC(=O)c1ccc(OCC2c3cc(OC)c(OC)cc3CCN2C(=O)Cc2ccc(OC)c(OC)c2)cc1 (configuration not stated)	.	-4.5%	.	-3.3	.	-3.4%	3.2
COc1ccc(C2=Nc3cc(C)ccc3OC2)cc1	-1.6%	28.2µM*	6.4	-2.7	-9.0	-5.3%	0.0
N=c1c(C(=O)NC2CCCCC2)cc2c(=O)n3ccccc3nc2n1CCc1ccccc1	10.0%	.	4.2	14.0	7.0	0.8%	0.6
COc1ccc(Cn2c(CCC(=O)Nc3ccc(OC)c(Cl)c3)nc3cccnc32)cc1	.	0.8%	.	25.5	.	7.8%	1.4
O=C(Nc1ccccc1)C1=C[C@H](c2ccccc2)C[C@H](OCc2ccc(CO)cc2)O1	-0.3%	2.7%	2.3	27.3	4.0	-1.7%	1.7
Cc1ccc(/C=N/NC(=O)CSc2nc3nc(C)cc(C)n3n2)cc1	11.5%	0.7%	0.6	-9.5	23.0	28.5%[38.3 µM]	0.5
CCOC(=O)C1=CN(CC)S(=O)(=O)NC1c1ccc(C(F)(F)F)cc1 (configuration not stated)	.	-7.5%	.	-0.8	.	2.0%	0.7
COc1cccc(-c2ccc3c(c2)S(=O)(=O)c2cccc(C(=O)O)c2C3=O)c1OC	.	-3.8%	.	2.7	18.1	1.1%	-0.1
O=C(CS(=O)CC(=O)Nc1ccccc1-c1ccccc1)Nc1ccc(F)cc1 (configuration not stated)	8.2%	.	-1.0	8.4	2.2	-3.0%	1.1
CCOc1ccc(OCCOCCOc2ccccc2Cl)cc1	2.1%	1.1%	7.5	10.3	-14.2	1.5%	1.3
CC(=O)Nc1ccc(S(=O)(=O)N2CCN(C3CCCCCCC3)CC2)cc1	-9.0%	-2.4%	14.6	3.5	-8.8	-1.1%[38.3 µM]	-0.2
CCN1C(=O)c2ccccc2Sc2ccc(NC(=O)Nc3ccccc3OC)cc21	.	-9.8%	.	-5.9	.	1.2%	0.5
CCC12CN(S(=O)(=O)c3ccc(C)cc3)CC(CC)(CN(S(=O)(=O)c3ccc(C)cc3)C1)C2=O	1.7%	0.6%	-0.8	4.2	-4.4	?	0.9
O=C1C(NS(=O)(=O)c2cccs2)=C(N2CCN(c3cccc(Cl)c3)CC2)C(=O)c2ccccc21	-5.7%	1.9%	-2.8	17.8	-24.2	1.9%	0.0
COC(=O)c1ccccc1NC(=O)COC(=O)c1ccco1	-4.8%	0.0%	?	-7.3	4.8	0.3%	1.7
COc1cc(N2Cc3ccccc3C2)ccc1C=O	-3.5%	.	7.7	0.3	93.7*	0.0%	-0.2
CCOC(=O)c1ccc(NC(=O)CN2C(=O)CCC2=O)cc1	13.7%	-8.5%	1.7	-13.8	-3.3	-0.1%	-0.4
Cc1nn(Cc2ccc(Cl)cc2)c2sc(C(=O)O)cc12	12.2%	.	1.0	14.9	3.9	0.1%	-0.1
CCOC(=O)CN(C(=O)CSc1nnc(CNc2ccc(C)cc2C)o1)c1ccccc1	-3.7%	0.0%	0.2	-16.5	23.2	3.6%	-1.3
CCC1CCCCN1CCCNC(=O)C1CCN(c2nnc(-n3cccc3)s2)CC1 (configuration not stated)	12.1%	0.9%	.	-1.6	-0.2	5.2%	-0.2
CCN(CC)S(=O)(=O)c1ccc(C(=O)Oc2ccc3c(c2)OCO3)cc1	7.9%	1.2%	3.0	-0.5	5.1	-1.0%	2.8
O=C(O)c1ccccc1C(=O)NC1=NN(c2ccccc2)CC1	12.0%	-0.3%	-3.9	.	1.2	-1.0%	.
COc1ccc(N(Cc2cc3ccccc3[nH]c2=O)S(C)(=O)=O)cc1	2.1%	-20.5%	6.3	-17.6	0.3	-0.2%	-0.5
C/C(=N/NC(=O)Cc1c(C)[nH][nH]c1=O)c1ccc(O)cc1	7.2%	-2.7%	-1.2	2.5	-5.7	1.0%	-0.2
CCNc1ncc2nc(-c3ccccc3)c(=O)n(C[C@H]3CCCO3)c2n1	13.0%	.	-0.9	.	.	1.2%	.
N#Cc1cccc(NC(=O)CNc2cccc(S(=O)(=O)N3CCCC3)c2)c1	.	.	.	-17.2	-33.9	13.8%	0.2
COc1ccc(CNC(=O)CSc2ccc(Br)cc2)cc1OC	2.5%	-3.1%	-2.1	-14.6	-9.3	1.8%	2.1
COc1cc2c(C(=O)N3CCN(c4ccccc4F)CC3)cn(C)c(=O)c2cc1OC	6.4%	-0.1%	-0.5	-2.6	?	1.5%	-0.8
CCOCCCNc1ccc(N2C(=O)CCCC2=O)cc1[N+](=O)[O-]	9.2%	.	2.6	-10.0	-0.6	-1.6%	-0.1
O=C(NCC(O)c1nc2ccccc2[nH]1)c1cc2ccccc2[nH]1 (configuration not stated)	.	5.4%	.	.	.	-0.9%	0.1
O=C(NC1CCCCCC1)c1nc2ncccn2n1	20.3%	28.2µM*	-1.0	-6.5	0.4	-0.5%	-1.2
CC1=C(C(=O)Nc2ccccc2)C(c2ccc3c(c2)OCO3)C2=C(CCCC2=O)N1 (configuration not stated)	-2.9%	-26.4%	-4.3	-15.1	9.7	-1.2%	1.3
COc1ccc(-c2cc(C(=O)Nc3c(C)nn(Cc4ccc(C)cc4)c3C)no2)cc1OC	.	-5.9%	.	-14.9	.	3.2%	-0.7
C[C@H](CO)N1C[C@H](C)[C@@H](CN(C)S(=O)(=O)c2ccc3ccccc3c2)OCc2cnnn2CCCC1=O	.	-2.5%	.	1.0	.	0.4%	0.5
CC(CNC(=O)c1ccc(CSc2nc3ccncc3n2Cc2ccc(F)cc2)cc1)c1ccccc1 (configuration not stated)	.	-9.3%	.	14.5	.	-1.6%	0.4
Cc1ccc(C)n1-c1cccc(NC(=O)c2ccccc2)c1	9.9%	?	3.9	-14.3	1.5	-1.7%	-0.5
CCCCN(C(C)=O)C1CC(=O)N(c2ccc(OCCC)cc2)C1=O (configuration not stated)	-2.4%	-1.4%	1.2	-0.8	-8.2	0.4%	-0.6
CC1CN(C(C)C)C(=S)NC1=O (configuration not stated)	.	-5.7%	.	0.7	.	-1.1%	-0.4
CCOC(=O)COc1ccc2ccccc2c1/C=C/[N+](=O)[O-]	20µM*	-0.8%	0.9	8.9	-5.5	-1.5%	16.8
COC(=O)C(C(=O)Nc1ccccc1C)C1CCCC1 (configuration not stated)	8.9%	0.0%	-0.2	19.4	1.1	3.1%	-0.8
CC1CC(C)CN(C(=O)C2CCC(CNc3c(N4CCCCC4)c(=O)c3=O)CC2)C1 (configuration not stated)	3.0%	-2.1%	-0.8	16.2	13.5	0.6%	0.1
CC(C)(C)OC(=O)[C@H](Cc1ccccc1)NC(=O)c1[nH]cnc1C(=O)N[C@@H](Cc1ccccc1)C(=O)OCc1ccccc1	18.8%	0.1%	1.6	46.8	27.3	2.7%	0.2
Cc1ccc(Cn2c(C(=O)O)c(CNC3CCCC3)c3ccc(C)cc32)cc1	.	-20.1%	.	19.0	.	-0.9%	-0.2
O=C(COC(=O)/C=C/c1c(F)cccc1Cl)NCC1CCCO1 (configuration not stated)	.	-5.7%	.	9.6	21.5	-1.5%	0.1
CSc1ccccc1C(=O)NC1CCSc2ccccc21 (configuration not stated)	7.3%	.	2.4	6.3	26.5	2.1%	1.2
Cc1ccc(C)c(N2CCN(S(=O)(=O)c3ccc4c(c3)OCCO4)CC2)c1	6.3%	-0.8%	1.9	-7.3	?	-1.9%	3.6
CCN(c1ccc(OC)cc1)S(=O)(=O)N1CCCC(C(=O)NCc2ccc(OC(C)C)cc2)C1 (configuration not stated)	.	1.0%	.	-12.5	.	4.3%	0.3
CC(=O)Nc1ccc(-c2nnc(SCC(=O)NCc3ccco3)n2C)cc1	-15.1%	-1.1%&-2.0%	5.4	-0.8	7.2	-1.4%&1.3%	2.4&-0.2
CC(C)NC(=O)c1cc(-c2ccco2)on1	16.8%	-5.1%	-1.8	2.1	5.2	5.5%[38.3 µM]	-0.3

# Compound activity (PubChem BioAssay)
